Bioassay records: PubChem, National Center for Advancing Translational Sciences (NCATS)
Menin-MLL FL inh: qHTS Assay for Inhibitors Targeting the Menin-MLL Interaction in MLL Related Leukemias: Competition With Fluorescein Labeled MLL-derived Peptide | Fluorescence polarization, fluorescein-MLL peptide displacement from menin | FP activity change, % at 61.4 µM | 290,000 tested, under 10 active; inconclusive = falling polarisation curve, or a change in total fluorescence; inactive = total fluorescence flat and polarisation flat or rising; no compound was filed as active; the % refers to the polarisation; negative = inhibition;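 also: % of control where 0% means no effect; inhibitors lower the polarisation; unlabelled MLL peptide was the positive control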
TRPML1 inh: qHTS for Inhibitors of the Human Mucolipin Transient Receptor Potential 1 (TRPML1) | TRPML1-inducible cells, Ca2+ dye fluorescence, FDSS; active compounds read low; inhibition of EC80 agonist-evoked calcium signal | 0.02% of 390,000 active | Mucolipin-1 (Homo sapiens), Q9GZU1 | activity change, negative = inhibition, % (no concentration beside the values); in the data active means activity change below about -50%; inconclusive means about -30% to -50%; inactive means above about -30%;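 also: stimulus is agonist 54-4 at its EC80 concentration; % is scaled to controls: 0 for no effect and ±100 for the full control effect; compound concentration not given in the record; the text of the record puts the active cut at -80%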
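Tet-induced TRPML1-DL cells loaded with Ca8 no-wash calcium dye were read kinetically on FDSS. Compound addition was followed by EC80 agonist 54-4 (4 uM final); inhibition was read over 110 s.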
Sfp PPTase inh: qHTS Assay for Inhibitors of Bacillus subtilis Sfp phosphopantetheinyl transferase (PPTase); Potency, µM, inactives show max response, negative = inhibition, most hits filed as inhibitors; Biochemical Sfp PPTase activity, qHTS; 4'-phosphopantetheinyl transferase ffp (Bacillus subtilis), Q9F4F7; AID 1490, 2009; 3.5% of 310,000 active; active = well fitted inhibition curve with a large enough effect; inconclusive = small, poorly fitted or top-dose-only effect, or another doubt; inactive = no such curve, though single readings can be large or run the other way;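 also: the enzyme is Sfp with the accession as filed and its product quenches rhodamine fluorescence; potency is read from the fitted curve at half-maximal effect; 0% = enzyme reaction without inhibitor and -100% = no enzyme wells; top concentration of the series not given in the record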
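With Hepes-Na pH 7.6 buffer containing 10 mM MgCl2, Sfp (15 nM) modified BHQ-2-YbbR (12.5 uM) using rhodamine-CoA (5 uM). Two reads 30 minutes apart at 525/598 nm yielded each well's rate.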
ClpP mod: qHTS Assay for Activators of ClpP | Potency, µM (series often up to 57.5 µM), inactives show top-dose activity change, negative = active | 1.9% of 340,000 active | ATP-dependent Clp protease proteolytic subunit (Bacillus subtilis (strain 168)), P80244 | purified B. subtilis ClpP, FRET peptide cleavage, 20 min; active = well fitted falling curve with a large enough effect; inconclusive = small, poorly fitted or top-dose-only effect; inactive = no such curve, though single readings can be large or run the other way; also: potency is read from the fitted curve at half-maximal effect; the source files actives as falling curves though it sought activators and does not explain the sign; nearly all actives have a fitted effect of over 65% in size; many hits overshoot -100%
Target sequence (P80244 whole entry, looked up): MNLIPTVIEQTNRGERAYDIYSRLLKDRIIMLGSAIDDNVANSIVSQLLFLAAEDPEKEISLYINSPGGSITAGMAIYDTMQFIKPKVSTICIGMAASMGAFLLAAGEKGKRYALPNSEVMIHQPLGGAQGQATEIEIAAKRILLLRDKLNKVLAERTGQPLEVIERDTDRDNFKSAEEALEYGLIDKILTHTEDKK
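FRET quenching reversal measured ClpP activation: 10 microg/mL B. subtilis ClpP at pH 8 with the FRET-FV decapeptide, read at 430 nm after 320 nm excitation. The 20-min minus 0-min signal was scaled between DMSO/no-enzyme wells and ADEP (5.8 microM final).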
TRPV1 potentiator: HTS Assay for Compounds that Act as Potentiators of the Vanilloid Receptor 1; Transient receptor potential cation channel subfamily V member 1 (Homo sapiens), Q8NER1; TRPV1-expressing cells, Fluo-8 calcium influx, capsaicin EC20 potentiation; host cell line not named in the record; control for the full effect not named in the record; potentiation, % at 8.33 µM; 0.02% of 320,000 active; active means potentiation above 80%; inconclusive means 30% to 80%; inactive means below 30%; also: 0% is about no effect
Target sequence (Q8NER1 whole entry, looked up): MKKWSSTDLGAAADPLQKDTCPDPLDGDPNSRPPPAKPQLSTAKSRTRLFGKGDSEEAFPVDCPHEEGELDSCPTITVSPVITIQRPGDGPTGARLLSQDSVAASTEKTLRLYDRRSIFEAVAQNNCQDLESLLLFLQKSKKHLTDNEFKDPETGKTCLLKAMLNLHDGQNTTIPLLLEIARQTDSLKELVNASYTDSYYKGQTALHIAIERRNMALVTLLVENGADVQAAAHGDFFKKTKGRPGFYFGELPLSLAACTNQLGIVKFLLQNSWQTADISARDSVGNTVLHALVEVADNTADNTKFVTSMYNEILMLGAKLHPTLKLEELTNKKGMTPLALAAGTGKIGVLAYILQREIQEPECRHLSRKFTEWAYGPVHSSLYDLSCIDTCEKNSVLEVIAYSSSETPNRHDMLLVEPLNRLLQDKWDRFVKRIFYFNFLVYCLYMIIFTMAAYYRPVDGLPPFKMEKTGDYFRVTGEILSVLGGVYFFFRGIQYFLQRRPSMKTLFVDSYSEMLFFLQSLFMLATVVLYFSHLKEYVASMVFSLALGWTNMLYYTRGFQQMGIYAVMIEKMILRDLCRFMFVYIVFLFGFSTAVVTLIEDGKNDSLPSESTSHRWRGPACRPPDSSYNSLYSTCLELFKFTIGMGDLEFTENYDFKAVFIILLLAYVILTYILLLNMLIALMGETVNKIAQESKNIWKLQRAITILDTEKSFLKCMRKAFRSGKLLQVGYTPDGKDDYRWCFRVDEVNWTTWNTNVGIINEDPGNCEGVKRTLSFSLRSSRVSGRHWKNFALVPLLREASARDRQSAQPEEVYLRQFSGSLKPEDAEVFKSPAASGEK
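TRPV1-expressing cells were cultured overnight at 35.5C and loaded with Fluo-8 calcium dye for 40 to 90 min at room temperature. After a 10 s baseline, compound was added and calcium influx was read kinetically for 3 min (ex 480/em 520 nm).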
gsp ag: qHTS for Agonist of gsp, the Etiologic Mutation Responsible for Fibrous Dysplasia/McCune-Albright Syndrome: qHTS | Potency, µM (highest dose often 76.9 µM), inactives show top-dose activation (cAMP increase), usual class: activators | AID 624287, 2012 | gsp mutant cells, cAMP HTRF, 30 min; control for the full effect not named in the record | 0.13% of 340,000 active; active = well fitted activation curve with a large enough effect; inconclusive = small, poorly fitted or top-dose-only effect, or another doubt; inactive = no such curve, though single readings can be large or run the other way; cell line not stated here;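 also: phosphodiesterase inhibitor Ro 20-1724 added with compounds to block cAMP breakdown; potency is read from the fitted curve at half-maximal effect; nearly all actives have a fitted effect of over 60% in size; about a fifth of the inactives were tested at one dose only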
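Cells stably selected in G418 were plated at 2000/well, grown 16-24 hr, then given compounds in DMSO with the PDE inhibitor […] (300 uM solution added) for 30 min at 37C; cAMP was read by HTRF.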
gsp antagonist: qHTS for Antagonists of gsp, the Etiologic Mutation Responsible for Fibrous Dysplasia/McCune-Albright Syndrome: qHTS | gsp-mutant cells, cAMP HTRF, 30 min; control for the full effect not named in the record | 0.4% of 340,000 active | Potency, µM (doses to about 76.9 µM), for the others: top-dose activity change, negative = inhibition, usual class: inhibitors; active = falling curve of any shape with a large fitted effect; inconclusive = falling curve, mostly with a smaller effect; inactive = flat or rising curve; cell line not stated here;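 also: intracellular cAMP measured with PDE inhibitor Ro 20-1724 present during compound exposure; potency is read from the fitted curve at half-maximal effect; % is scaled to controls: 0 for no effect and ±100 for the full control effect; nearly all actives have a fitted effect of over 65% in size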
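Cells in G418 medium, seeded 16-24 h, 37C; buffer exchange to DPBS + 1 mM CaCl2, 0.5 mM MgCl2, 0.05% BSA; cpds in DMSO + […] (300 uM stock), 30 min 37C; HTRF cAMP detection.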
* marks the source's active call; other numbers are inactive results; ? = inconclusive; . = not tested or not shown; & = joins results of further samples; [ ] = remark or other dose. The list is partial; the hit share may differ from the screen's.

SMILES | Menin-MLL FL inh | TRPML1 inh | Sfp PPTase inh | ClpP mod | TRPV1 potentiator | gsp ag | gsp antagonist
O=C(OCC1O[C@@H](OC(=O)c2cc(O)c(O)c(O)c2)[C@@H](OC(=O)c2cc(O)c(O)c(O)c2)[C@@H](OC(=O)c2cc(O)c(O)c(O)c2)[C@@H]1OC(=O)c1cc(O)c(O)c(O)c1)c1cc(O)c(O)c(O)c1 (stereo not given in full) | ? | . | 25µM* | . | 4 | . | .
CC(C)CCP(=O)(O)c1ccccc1 | 1.6 | -23 | -2% | 0.0% | 6 | -5% | 12%
O=C(NCCN1CCOCC1)c1ccc(Cl)nc1 | 0.0 | 17 | 2% | . | 2 | 9% | 6%
Cc1ccc(OC(F)F)c(N2C(=O)C3C4CCC(O4)C3C2=O)c1 (stereo not given) | . | -6 | . | 1.8% | ? | 41% | 10%
CCOC(=O)[C@]12Cc3cc(Cl)ccc3[C@H]1N(Cc1ccccc1)C(=O)c1ccccc12 | . | 1 | . | -1.4%&-1.9% | . | . | -21%
O=c1[nH]c(=S)[nH]c(O)c1N=Nc1ccc(S(=O)(=O)N2CCc3ccccc32)cc1 | 3.8 | 12 | -8% | . | 19 | 2%[15.4 µM] | -31%
C=CCNC(=O)c1c(N)n(CCN2CCOCC2)c2nc3ccccc3nc12 | 0.2 | -4 | -12% | ? | -9 | -44%[inhibitor] | -2%
COc1cccc(-n2c(O)c(C=Nc3c(C)n(C)n(-c4ccccc4)c3=O)c(=O)[nH]c2=O)c1 | -0.1 | 10 | 11% | . | -2 | 10%[15.4 µM] | 13%
O=C(Cn1ncc2c3ccccc3n(Cc3ccccc3)c2c1=O)N1CCC2(CC1)OCCO2 | 0.9 | . | -16% | . | 7 | . | .
COc1cc(C2SCC(=O)Nc3c2c(=O)[nH]n3C2CCCCCC2)cc(OC)c1OC (stereo not given) | 2.4 | -3 | 14% | -2.8% | 14 | -11% | -1%
COc1ccc(NC(=O)c2cc([N+](=O)[O-])ccc2N2CCNCC2)cc1 | -8.5 | 5 | 11% | . | 8 | 8%[15.4 µM] | -5%
CC1(C)N=C(c2ccccc2)[C@@H]2C(c3ccc([N+](=O)[O-])cc3)N21 (stereo not given in full) | 3.7 | 14 | 15% | 2.8% | -10 | -26% | 9%
COC(=O)Cn1cc(/C=C2\C(=O)NC(=O)N(c3ccccc3)C2=O)c2ccccc21 | ? | -6 | -24% | . | ? | 24% | -8%
CC(C(=O)O)N(C(=O)c1ccccc1)c1ccc(F)c(Cl)c1 (stereo not given) | -5.8 | -9 | 21% | . | -3 | 21% | -8%
COC(=O)C1=C(c2ccc(OCc3ccccc3)c(F)c2)C[C@@H]2CC[C@H]1N2C | . | 7 | . | -0.6% | . | 29% | .
COc1ccc(CC2(CCc3ccccn3)C(=O)NC(=O)N(c3ccccc3C)C2=O)cc1OC (stereo not given) | 1.9 | 6 | -2% | . | 7 | -10% | -12%
CC[C@@]1(O)C(=O)OCc2c1cc1n(c2=O)Cc2cc3ccccc3nc2-1 | 0.0 | . | 10%&26%&14%&19% | 4.4% | 1 | . | .
CCOC(=O)C1=C(N)Oc2c(c(=O)oc3ccccc23)C12C(=O)N(C)c1ccccc12 (stereo not given) | 0.2 | 15 | 2% | -1.0%&0.8% | ? | 0% | -20%
CC12CN3CN(C1)CC(C)(C3)C2=NO | -0.6 | -13 | 7% | 0.2% | 5 | -17% | 1%
CN1C(=O)NC(=O)C(C)(C2=CCCCC2)C1=O (stereo not given) | -0.1&4.2 | 5 | 14%&11% | 0.5% | . | . | -4%

Among those listed so far, two contain a nitro group on carbon:
SMILES | Menin-MLL FL inh | TRPML1 inh | Sfp PPTase inh | ClpP mod | TRPV1 potentiator | gsp ag | gsp antagonist
COc1ccc(NC(=O)c2cc([N+](=O)[O-])ccc2N2CCNCC2)cc1 | -8.5 | 5 | 11% | . | 8 | 8%[15.4 µM] | -5%
CC1(C)N=C(c2ccccc2)[C@@H]2C(c3ccc([N+](=O)[O-])cc3)N21 (stereo not given in full) | 3.7 | 14 | 15% | 2.8% | -10 | -26% | 9%

Remaining list, next part:
SMILES | Menin-MLL FL inh | TRPML1 inh | Sfp PPTase inh | ClpP mod | TRPV1 potentiator | gsp ag | gsp antagonist
O=C(Nc1ccc(Cl)cc1)N1CC1 | . | 12 | . | . | . | 25% | 9%
CC(C)Nc1ccc(Nc2ccccc2)cc1 | -3.2 | -8 | 8.9µM* | -1.0% | 3 | -12% | 8%
C=CCn1c(O)c(C(CC)=NCCC2=CCCCC2)c(=O)[nH]c1=O | -0.7 | 14 | 4% | 1.6% | 1 | -7% | -16%
CCN(CC)c1ccc(N=Cc2c(O)n(CCc3ccc(OC)c(OC)c3)c(=O)[nH]c2=O)cc1 | ? | -8 | ? | -5.5% | 0 | -3% | -10%
O=C(c1cc(C(=O)NCc2ccc(Cl)cc2)c(=O)n(Cc2ccc(Cl)cc2)c1)c1cc(F)ccc1O | 2.9 | -11 | -4% | 0.0% | 3 | -15%[15.4 µM] | 2%
CCN1CCN(C(=O)Cc2coc3ccc4ccccc4c23)CC1 | 0.0 | -1 | 6% | 1.1% | 0 | 0% | 14%
Cc1ccc2c(c1)C1CN(C)CCC1N2C(=O)COc1ccc(S(=O)(=O)N2CCOCC2)cc1 (stereo not given) | -0.3 | 11 | 14% | -0.7% | 2 | -19% | 3%
CCOc1ccc(/C=C2/C(=O)NC(=O)N(CCc3ccc(F)cc3)C2=O)cc1 | 8.0 | 8 | ? | 0.8% | 5 | -21% | 1%
CCOC(=O)/C(=N\Nc1ccccc1)N1CC1 | -5.5 | -8 | 16% | . | 4 | -3%[15.4 µM] | -34%
CCN(CC)CCCN=C(C)c1c(O)n(-c2ccc(C)cc2)c(=O)[nH]c1=O | -1.5 | -6 | 10% | -1.5% | 5 | -7% | 4%
COC1=CC2[C@@H]3Cc4ccc(OC)c(O)c4[C@]2(CCN3C)CC1=O (stereo not given in full) | . | -11 | . | -2.7% | . | . | 9%
CN1CCN(c2ccc(N)cc2Cl)CC1 | 5.9 | -15 | ? | . | 85* | -7%[15.4 µM] | 7%
Cc1cccc(-n2c(O)c(C=NCCN3CCNCC3)c(=O)[nH]c2=S)c1 | 2.9 | -2 | -2% | -0.3% | 16 | -3%[15.4 µM] | 1%
CC(Cc1ccccc1Sc1ccc(O)cc1)N(C)C (stereo not given) | 5.0 | -19 | 1% | -0.6% | -7 | 13% | 12%
COc1cccc(N2C(=O)NC(=O)/C(=C/c3ccc([N+](=O)[O-])s3)C2=O)c1 | ? | -12 | 25µM* | . | 1 | -5%[15.4 µM] | -8%
Cc1ccc(S(=O)(=O)Oc2ccccc2C=C2C(=O)NC(=O)NC2=O)cc1 | . | 28 | . | 0.3% | . | -73%[inhibitor] | .
O=C(c1ccccc1)C1NC1c1ccccc1 (stereo not given) | 0.6 | 35 | -2% | 0.0% | 5 | -5%[15.4 µM] | 15%
CCc1ccc(N2C(=O)NC(=O)/C(=C/c3cccn3CCOc3ccc(C)cc3)C2=O)cc1 | 16 | 7 | 0% | . | -4 | -18% | 6%
CCN(CC)c1ccccc1 | . | 10 | . | -8.8% | 21 | . | -2%
COC(=O)C1=C(c2cccc(OCc3ccccc3)c2)C[C@@H]2CC[C@H]1N2C(=O)NCc1ccc([N+](=O)[O-])cc1 | . | 2 | . | 0.9% | -5 | -37%[inhibitor] | -20%
COc1ccc(OC)c(N2C(=O)NC(=O)C3(Cc4cc(C)ccc4N(C)C3)C2=O)c1 (stereo not given) | 2.9 | 4 | -20% | -0.5% | 3 | -23% | -8%
CN1CCN(Cc2cn3cccnc3n2)CC1 | -1.4 | 13 | 14% | . | -4 | -1% | 5%
CC(C)c1ccc(-n2c(O)c(C=NCCN3CCNCC3)c(=O)[nH]c2=S)cc1 | -1.5 | -1 | -1% | -1.1% | 3 | 2% | 13%
O=c1c2ccccc2nc(-c2ccccc2)n1-c1ccccc1O | 2.2 | -12 | 22% | . | -20 | 2% | 9%
O=C(Cc1ccccc1)Oc1ccc([N+](=O)[O-])cc1 | -0.2 | 8 | 22% | 0.0% | -4 | 1%[15.4 µM] | -17%
COC(=O)C1=C(c2cccc(OCc3ccccc3)c2)C[C@@H]2CC[C@H]1N2C(=O)NCc1ccccc1OC | . | -21 | . | -3.5% | -8 | 4% | -4%
C=CCNC(=S)N1Cc2ccccc2-n2nncc2C1 | . | 38 | . | 1.2% | . | -33%[inhibitor] | .
CCCCn1c(=O)c(C=Nc2cccnc2Cl)c(O)n(CCCCl)c1=O | 20 | -4 | -12% | . | -3 | 12% | -13%
O=P1(NCCCl)OCCCN1CCCl (stereo not given) | -0.9[24.8 µM] | -16 | 19% | -2.7% | -6 | . | 0%
c1ccc2c(N3CCNCC3)cccc2c1 | 1.1 | 2 | -9% | 4.1% | . | . | 11%
CCC(=O)c1cn(Cc2ccccc2)c2ccccc12 | -0.9 | 26 | 8% | 0.2% | 2 | 16%[15.4 µM] | 20%
Oc1ccc2c3c1OC1c4oc5ccccc5c4C[C@@]4(O)[C@@H](C2)N(CC2CC2)CC[C@]314 (stereo not given in full) | . | 47 | . | -3.3% | . | . | -4%
COc1ccc(-c2nc3ccc(C(=O)N4CCC5(CC4)OCCO5)cc3nc2-c2ccc(OC)cc2)cc1 | . | -5 | -11% | -11% | -5 | 1% | -32%
Cc1nn(Cc2ccccc2)c(C)c1C(=O)OCC(=O)Nc1cccc(S(N)(=O)=O)c1 | -2.6 | -18 | 25% | . | 11 | 10%[15.4 µM] | -8%
